# Env fusion inh: HIV envelope-mediated fusion inhibition; HeLa-JRFL Env/CEM21 cell fusion, luciferase; inhibition, % at 12.3 µM; actives 1.1% (n = 360,000); AID 651610;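 active = mean replicate inhibition score of at least 50 and every replicate individually at or above 50; inconclusive = only one of the two criteria met; inactive = mean below 50 and not all replicates reaching 50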;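 also: 0% = plate neutral controls and 100% = maraviroc near 300 nM; one replicate is shown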
# PABP FP inh: blocks human PABP binding to poly(A) RNA; actives 1% (n = 290,000); inhibition, % at 35 µM; P11940; fluorescence polarization;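 active = 50% or more with normal probe brightness, or confirmed in later tests; inconclusive = above 50% with abnormal brightness, or retests that disagree; inactive = below 50% or failed in later tests; about a fifth of its hits are not listed in these tables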;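 also: calls also rest on retests at 20 µM and on dose response follow-up; controls were probe without protein and protein plus probe with vehicle; some compounds called inactive have numbers as strong as hits; many hits fall short of the cut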
# Target sequence (P11940 whole entry, looked up): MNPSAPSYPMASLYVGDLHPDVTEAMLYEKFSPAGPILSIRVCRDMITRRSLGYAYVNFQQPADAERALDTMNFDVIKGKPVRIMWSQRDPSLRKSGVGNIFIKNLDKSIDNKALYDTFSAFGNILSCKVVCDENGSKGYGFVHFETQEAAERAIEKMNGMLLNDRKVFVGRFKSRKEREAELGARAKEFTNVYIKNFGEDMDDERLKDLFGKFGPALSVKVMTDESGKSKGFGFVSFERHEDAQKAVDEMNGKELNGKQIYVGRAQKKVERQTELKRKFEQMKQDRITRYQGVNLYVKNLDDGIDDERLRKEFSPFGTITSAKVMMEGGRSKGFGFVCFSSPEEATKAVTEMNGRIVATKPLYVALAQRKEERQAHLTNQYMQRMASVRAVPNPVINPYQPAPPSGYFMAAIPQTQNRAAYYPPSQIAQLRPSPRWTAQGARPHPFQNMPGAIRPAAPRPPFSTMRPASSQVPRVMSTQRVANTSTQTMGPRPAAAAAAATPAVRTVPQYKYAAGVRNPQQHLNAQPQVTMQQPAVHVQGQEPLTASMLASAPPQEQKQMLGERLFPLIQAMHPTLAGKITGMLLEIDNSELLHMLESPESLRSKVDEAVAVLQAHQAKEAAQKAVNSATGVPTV
# Rce1 inhib: yeast Ras-converting enzyme inhibition | calls only | yeast membranes, quenched prenylated peptide cleavage fluorescence | Q03530 | AID 2563 | actives 0.27% (n = 290,000);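 active = fall in fluorescence gain of 50% or more versus controls, with final raw signal at or below 3038400; inconclusive = same 50% fall but final raw signal above 3038400; inactive = fall in fluorescence gain under 50%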;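 also: plate controls were neutral control wells for no effect and wells lacking membranes for full effect; tested at 10 µM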
# CSC inhib: blocks cancer stem cells. cancer stem cell-like cells viability, luminescence. inhibition, % at 7.5 µM. actives 1.1% (n = 300,000). AID 2717;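 active = mean at 75% or more and at least half the replicates too; inconclusive = mean and replicates disagree; tested in HMLE shEcad cells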;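 also: 0% = median of negative and 100% = median of positive control wells; the first replicate is given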
# eIF4H FP inh: inhibitors of RNA binding by human eIF4H; Q15056; eIF4H fluorescence polarization binding assay; inhibition, % at 35 µM; actives 0.94% (n = 290,000);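 active = 50% or more with normal probe brightness, or confirmed in later tests; inconclusive = above 50% with abnormal brightness, or retests that disagree; inactive = below 50% or failed in later tests; about a fifth of its hits are not listed in these tables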;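 also: calls also rest on retests at 20 µM and on dose response follow-up; 0% = protein and probe with vehicle and 100% = probe without protein; strong numbers were not always called active; many hits fall short of the cut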
# Yeast UUG start: modulators of start codon recognition fidelity in yeast; S. cerevisiae UUG-firefly luciferase reporter, luminescence/redox ratio; activity score, % at 18.7 µM; actives 0.13% (n = 350,000); AID 602363;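 active = replicate mean at a twofold rise or more, about +100% in these data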;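 also: firefly luciferase made from a UUG start codon reports start codon fidelity; reporter light over untreated wells divided by growth signal over untreated wells; some hits fall short of that in this replicate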
# MT1-MMP act inh: MT1-MMP (human) activation inhibition; HT1080 RFP-PRO-GFP cells, GFP/RFP ratio fluorescence, overnight; percent of plate control window, DMSO zero; actives 0.061% (n = 360,000); GFP/RFP ratio change, % at 20 µM;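 active = GFP/RFP ratio change of at least 30% with cell ATP level not reduced by more than half and red fluorescence within 50% of control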; also: strong numbers were not always called active
#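 Assay system: HT1080 RFP-PRO-GFP cells. Benchmarks: DMSO vehicle wells and RFP-L50D-GFP reporter cell wells. Times: overnight cell settling, then overnight compound exposure, 37 °C, 5% CO2. Compound: 20 µM single dose, 1% DMSO. Read-out basis: GFP/RFP fluorescence ratio.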
# eIF4H FP inh retest: further read-out of eIF4H FP inh, marked with its call; inhibition, %; compound at 20 µM; confirmation average;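 mean of two retest wells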
# PABP FP inh retest: further read-out of PABP FP inh, marked with its call; inhibition, %; compound at 20 µM; confirmation repeats;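 mean of two retest wells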
# MT1-MMP act inh RFP: second read-out of MT1-MMP act inh, no call of its own (marks repeat the call); RFP signal change, %; measured here: RFP expression control read;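 0 = vehicle wells; hits needed this value within 50% of zero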
# Starred values were filed as active, the others as inactive; i = inactive; ? = inconclusive; . = not tested or not shown; & = joins results of further samples; [ ] = another dose, or the depositor's remark. These rows are one share of the data (hit frequency here may not be typical).
SMILES,Env fusion inh,PABP FP inh,Rce1 inhib,CSC inhib,eIF4H FP inh,Yeast UUG start,MT1-MMP act inh,MT1-MMP act inh RFP,others
CN(C)c1cccc(NC2=CC(=[N+]3CCOCC3)CC(C)(C)C2)c1,-1,58*,i,-3,10,-27,-6,7,eIF4H FP inh retest=-10;PABP FP inh retest=84*
O=C(COC(=O)Cc1c(F)cccc1Cl)Nc1nnc(-c2ccccc2)o1,.,.,i,-8,.,-16,2,3,
CC1(C)CC(=O)C=C(N=CC2=C(O)CC(C)(C)CC2=O)C1,.,13,.,-7,-5,-8,-1,4,
CCN(CC)Cc1ccccc1Sc1ccccc1,2,17,i,5,6,.,1,3,
CCOc1cc(NC(=O)c2cccs2)c(OCC)cc1NC(=O)CCC(=O)NCc1ccccn1,12,0,i,-9,-2,.,.,.,
Cc1ccccc1C(=O)NC(=S)N(Cc1ccccc1)c1ccccn1,-13,.,.,7,.,-21,-2,3,
C=CCNC(=O)/C(C#N)=C/c1ccc(OS(=O)(=O)c2ccc(C)cc2)c(OC)c1,-15,0,i,37,2,.,-5,-13,
COc1cccc(OC2OC3COC(C)(C)OC3C(O)C2NC(C)=O)c1 (stereo not drawn),-4,0,i,-6,5,1,0,-3,
Cc1ccc(S(=O)(=O)Nc2ccncc2)c(C)c1N(C)S(=O)(=O)c1ccc(Cl)cc1,-4,-7,i,-3,-13,7,0,2,
CC(NC(=O)CCc1nc2cc(S(=O)(=O)N3CCOCC3)ccc2n1C)c1ccc(S(N)(=O)=O)cc1 (stereo not drawn),-6,22,i,-2,-2,-1,13,8,
Cn1c(=O)n(C)c2cc(NC(=O)COc3ccc(Cl)cc3)ccc21,8,5,i,-4,11,-10,3,-11,
O=C(N/N=C/c1cn(Cc2cccc(F)c2)c2ccccc12)c1cc(O)cc(O)c1,.,89*,i,21,100*,-14,-1,-5,
C=CCNC(=O)/C(C#N)=C/c1ccccc1[N+](=O)[O-],-2,-14,i,-4,18,.,-5,0,
O=C(Oc1ccc(-c2ccccc2)cc1)c1ccco1,?,.,.,.,.,-9,4,2,
CC(NC(=O)c1nn(C)c(=O)c2ccccc12)c1ccc(F)cc1 (stereo not drawn),-13,12,i,-6,9,-1,7,-1,
COc1cccc(C2=N/C(=C\N(C)C)C(=O)O2)c1,.,0,i,-5,-1,-22,-2,-5,
O=C(O)CCSc1nc2ccccc2s1,78*,8,i,-2,0,-45,-1,-1,
COCc1nnc(NC(=O)c2cccs2)s1,-73,4,i,.,1,21,3,7,
COc1ccc(N2CCN(CCCNC(=O)Cn3c(=O)c4cccn4c4ccccc43)CC2)cc1,0,0,i,3,2,13,-5,-1,
CC#CCN1c2ccccc2[C@]23C[C@@H](C(=O)OC)N(C(=O)C4CCC4)C2=NC(C(=O)OC)=C(C(=O)OC)[C@H]13,-23,9,i,11,-8,-4,-3,-2,
CCC(C)(C)C1CCC2(CC1)NC(=O)N(CC(=O)NC(C)CCc1ccccc1)C2=O (stereo not drawn),-15,.,.,.,.,-15,4,-5,
CCOC(=O)NC1(C(F)(F)F)NC(=O)N(c2cccc(C(F)(F)F)c2)C1=O (stereo not drawn),-14,-2,i,0,1,-17,2,5,
N#CCCN(C1CCCCC1)S(=O)(=O)c1cccc2nsnc12,-6,6,i,15,3,.,3,-2,
Oc1cccc(-c2nc3ccccc3s2)c1,.,-3,i,8,-5,-81,-2,-5,
CCOc1ccc(S(=O)(=O)N2CCC(C(=O)NCc3cccnc3)CC2)cc1,.,6,i,2,-6,-4,-1,1,
OC[C@H]1O[C@@H](c2nc3ccc(-c4nc(-c5ccc(Br)cc5)no4)cc3[nH]2)C[C@@H]1O,-128,.,.,.,.,1,2,-8,
O=C(NCCC1=CCCCC1)c1cc(COc2ccc(F)cc2Cl)on1,6,4,i,-3,-21,-16,-2,0,
C[C@@H]1CN([C@@H](C)CO)C(=O)c2cccc(NC(=O)C3CCCCC3)c2O[C@@H]1CN(C)C(=O)NC1CCCCC1,-24[16.7 µM],.,.,.,.,8&3,-4,-2,
COc1cc(C(=O)OCC(=O)N2CC(C)OC(C)C2)cc(OC)c1OC (stereo not drawn),11,2,i,8,-12,-12,4,4,
N#C/C(=C\c1ccc(/C=C(/C#N)c2nn(CCO)c(N)c2C#N)cc1)c1nn(CCO)c(N)c1C#N,-3,-4,i,-1,10,-8,-5,5,
CCN(CC)CCN1C(=O)C(=O)/C(=C(/O)c2ccc(OCC(C)C)cc2)C1c1ccncc1 (stereo not drawn),-2,-2,.,.,6,.,.,.,
Cc1cscc(C)c1=S,-92,.,.,.,.,-30,0,5,
Cc1cccc(NS(=O)(=O)c2ccc3[nH]c(=O)oc3c2)c1C,13,.,.,-15,.,-8,-8,-6,
CC(C(=O)N1CCN(c2ccccc2)CC1)c1ccc([N+](=O)[O-])cc1 (stereo not drawn),0,-5,i,-18,-4,-15,-1,-5,
CC1(C)CC(=O)C2=C(C1)Nc1ncnn1C2c1cccs1 (stereo not drawn),-1,76,i,-20,-1,.,0,1,eIF4H FP inh retest=8;PABP FP inh retest=4
CC(=O)N1CCc2ccc(N)cc21,-13,.,.,.,.,-24,-1,0,
NS(=O)(=O)c1ccc(Nc2c([N+](=O)[O-])cncc2[N+](=O)[O-])cc1,4,-1,i,-10,-8,1,5,-1,
COc1ccc2cnn(-c3ccc(OC(F)(F)Cl)cc3)c(=O)c2c1OC,-15,11,i,-9,-5,-14,6,-2,
O=C(CCN1C(=O)/C(=C/c2ccc3c(c2)OCO3)SC1=S)NNC(=O)c1cccnc1,2,2,i,-2,18,.,0,10,
C/C(=C\C(=O)c1ccc(Br)cc1)Nc1cccc(Cl)c1,.,.,i,-10,.,-24,1,5,

# Some of these compounds in order of length of the SMILES, lowest first.
SMILES,Env fusion inh,PABP FP inh,Rce1 inhib,CSC inhib,eIF4H FP inh,Yeast UUG start,MT1-MMP act inh,MT1-MMP act inh RFP,others
CCN(CC)Cc1ccccc1Sc1ccccc1,2,17,i,5,6,.,1,3,
O=C(CCN1C(=O)/C(=C/c2ccc3c(c2)OCO3)SC1=S)NNC(=O)c1cccnc1,2,2,i,-2,18,.,0,10,
Cc1ccc(S(=O)(=O)Nc2ccncc2)c(C)c1N(C)S(=O)(=O)c1ccc(Cl)cc1,-4,-7,i,-3,-13,7,0,2,

# Next section
SMILES,Env fusion inh,PABP FP inh,Rce1 inhib,CSC inhib,eIF4H FP inh,Yeast UUG start,MT1-MMP act inh,MT1-MMP act inh RFP,others
COc1cc2sc(-c3ccccc3OC)c(-c3ccc(O)cc3)c2cc1OC,2,.,.,80*,.,-7,0,-2,
Cc1ccc(C2CC(=O)N3CN(c4ccc(Br)cc4)CSC3=C2C#N)o1 (stereo not drawn),-24,92*,i,7,41*,-3,-26,6,eIF4H FP inh retest=66*;PABP FP inh retest=66*
Cc1cc(C(=O)OCC(=O)N(C)c2c(N)n(Cc3ccccc3)c(=O)[nH]c2=O)c(C)n1-c1ccccc1,-22,.,.,.,.,8,1,2,
COCCn1c(SCC(=O)Nc2ccc(Cl)cn2)nnc1-c1ccncc1,14,-3,i,12,-4,.,-1,1,
Cc1ccc(S(=O)(=O)C2CCOC2=O)cc1 (stereo not drawn),-21,2,i,-7,-6,-17,1,-3,
CC(/C=C/c1ccccc1)=N\Nc1ccccc1[N+](=O)[O-],-29,-5,i,-2,-21,.,27,3,
Cc1ccc(C(=O)N/C(=C/c2ccc(Cl)cc2)C(=O)Nc2cccc(C(=O)O)c2)cc1,-5,3,i,3,8,-7,2,5,
COc1ccc(NC(=O)CN(C)C(=O)c2cc(S(=O)(=O)N(C)C)ccc2N2CCCC2)cc1,22,.,i,-6,.,.,-1,0,
CCNC(=O)N(C)c1nncnc1C(=O)NC,-51,4,i,.,-11,-12,3,2,
CC(C)(C)NC(=O)C(c1ccncc1)N(C(=O)c1csnn1)C1CC1 (stereo not drawn),-31,16,i,1,7,-11,3,4,
CC1=NC(=O)C(N=Nc2ccccc2C(=O)O)N1c1ccccc1 (stereo not drawn),5,14,i,.,-4,.,6,1,
CCC(=O)N(CCc1ccccc1C)Cc1cc2cc3c(cc2[nH]c1=O)OCO3,.,-3,i,-19,-6,.,-1,1,
N#Cc1c(-c2ccc(Br)cc2)nc2n(c1=O)CCCS2,12,-11,i,.,0,11,7,5,
CN(C)CCNC(=O)c1ccc(Sc2ccc(Br)cc2)c([N+](=O)[O-])c1,20,-10,i,67,-8,-22,4,-5,
CCn1c(=O)c(NC(=O)c2ccccc2)c2n(c1=S)CCCCC2,.,-6,i,-10,-3,-10,0,2,
CCCCCCCCNC(CO)(CO)CO,-6,9,i,5,-13,-15,-1,5,
Cn1c(SCC(=O)Nc2ccc(Cl)cn2)nnc1C1CC1,2,-8,i,-3,-1,-5,1,2,
O=C(CSc1ncnc2sccc12)N1CCCCC1,-15,.,.,-28,.,-24,2,-4,
COc1ccc(-n2nnnc2CNC(=O)C2CC(=O)N(c3ccc(Cl)cc3)C2)cc1 (stereo not drawn),-7,.,i,-1,.,-9,3,5,
O=C(Cc1cccs1)N/N=C/C(Br)=C/c1ccccc1,-30,7,i,20,-9,-22,9,1,
COc1ccc(NC(=O)CSc2ncccc2C(=O)OC(C)C)cc1OC,?,0,i,-6,-3,8,14,-14,
COc1ccccc1N1CCN(C(=O)c2ccc(Cl)c(S(=O)(=O)NCc3ccco3)c2)CC1,-86,7,i,50,2,-2,-6,-21,
CN([C@@H](Cc1ccc(OS(=O)(=O)c2cccc3cnccc23)cc1)C(=O)N1CCN(c2ccccc2)CC1)S(=O)(=O)c1cccc2cnccc12,.,5,i,19,-15,-18,-3,-7,
Cc1ccccc1NC(=O)C1CC(Cl)=CCC1C(=O)O (stereo not drawn),-159,-10,.,-3,-2,-16,2,2,
O=C(CN1CCC(n2nnc3cc(C(F)(F)F)ccc32)CC1)Nc1ccc2c(c1)OCCO2,36,10,i,-11,-6,-30,0,-2,
Cc1ncc(S(=O)(=O)c2ccccc2)c(-c2ccc(Cl)cc2Cl)n1,.,5,i,-13,-3,3,-3,-2,
CC1SCC(NC(=O)c2cccc(Cl)c2)CS1 (stereo not drawn),-17,-3,i,-21,-11,-20,-1,-3,
Cc1csc(NC(=O)CSc2nc(=O)[nH]c3c2CCCC3)n1,-2,6,i,-7,-12,-8,-1,-1,
CC(C)(C)c1csc(NC(=O)CCS(=O)(=O)c2ccc(F)cc2)n1,9,.,.,.,.,3,-3,-21,
Cc1ccc(-n2c3c(c(=O)[nH]c2=S)C(C(F)(F)F)(C(F)(F)F)NC(=O)N3)cc1,6,-4,i,-8,4,-14,-3,-2,
CC(C)(C)c1nnc(NC(=O)Cc2ccccc2[N+](=O)[O-])s1,7,0,i,-7,2,.,2,8,
O=C(Nc1cccnc1)c1ccc(S(=O)(=O)c2ccc(Cl)cc2)cc1,-13,-5,i,0,-2,3,-3,-17,
COc1ccc(N2CCN(C(=O)C3CCN(S(=O)(=O)c4c(C)noc4/C=C/N(C)C)CC3)CC2)cc1,1,7,i,5,-11,-5,-2,-6,
CCO[C@H]1OC(C(=O)NC2CC2)=C[C@@H](c2ccc(Br)cc2)[C@@H]1CCCO,-7[16.7 µM],-10,i,-1,-1,-2&-18,1,-2,
COc1ccccc1NC(=O)CSc1nnc(-c2ccccc2)o1,-72,1,i,8,-1,-6,4,0,
COc1cccc(NC(=O)COC(=O)c2ccco2)c1,.,1,i,6,4,.,2,3,

# High-throughput results deposited in PubChem BioAssay by several laboratories.
